Menin-MLL FL inh = menin-MLL binding inhibition, fluorescein peptide; Fluorescence polarization, fluorescein-MLL peptide displacement from menin; FP activity change, % at 61.4 µM; 290,000 tested, under 10 active; inconclusive = falling polarisation curve, or a change in total fluorescence; inactive = total fluorescence flat and polarisation flat or rising; no compound was filed as active; the % refers to the polarisation; negative = inhibition;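 also: % of control where 0% means no effect; inhibitors lower the polarisation; unlabelled MLL peptide was the positive control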
Sfp PPTase inh = Sfp phosphopantetheinyl transferase inhibition. Q9F4F7. Biochemical Sfp PPTase activity, qHTS. Potency, µM, without a hit: max response, negative = inhibition, hits mostly inhibitors. 310,000 compounds, 3.5% hits; active = well fitted inhibition curve with a large enough effect; inconclusive = small, poorly fitted or top-dose-only effect, or another doubt; inactive = no such curve, though single readings can be large or run the other way;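 also: the enzyme is Sfp with the accession as filed and its product quenches rhodamine fluorescence; potency is read from the fitted curve at half-maximal effect; 0% = enzyme reaction without inhibitor and -100% = no enzyme wells; top concentration of the series not given in the record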
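Fluorescence-quenching assay: 15 nM Sfp-PPTase preincubated 15 min at room temperature with compound, then 5 uM rhodamine-CoA and 12.5 uM BHQ-2-labelled YbbR peptide added. Fluorescence (ex 525/em 598 nm) read at start and after 30 min; difference gives rate.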
The depositor's hits bear a star; ? = inconclusive; & = joins results of further samples; [ ] = another dose, or the depositor's remark.

Structure | Menin-MLL FL inh | Sfp PPTase inh
C#CCOCCOCCOCCNc1nc(N2CCN(C(=O)[C@H](CCCCN)n3cc(C(N)CO)nn3)CC2)nc(N2CCN(C(=O)[C@H](CCC(=O)O)n3cc(C(N)CC(C)C)nn3)CC2)n1 (stereo not given in full) | 4.7 | ?
OC1OC[C@@H](O)[C@H](O)[C@@H]1O (stereo not given in full) | 0.9 | 18%
O=S1(=O)OC(c2ccc(O)cc2)(c2ccc(O)cc2)c2ccccc21 | ? | 13%
COC(=O)[C@@]1(Cc2ccccc2)[C@H]2c3cc(C(=O)N(C)C)n(Cc4nc5ccccc5[nH]4)c3C[C@H]2CN1C(=O)c1ccccc1 | ? | 4%
CCCCCCCCCCCC(=O)OCC(O)CO (stereo not given) | 3.6 | 1%
C[N+](C)(C)CC[N+]1(C)Cc2c(Cl)c(Cl)c(Cl)c(Cl)c2C1 | ? | -29%&11%
O=C1Nc2ccc(Br)cc2/C1=C/c1ccc(C(=O)O)cc1 | 7.3 | -4%
CCN1CCN(CCCCSc2ccccc2)CC1 | 3.5 | ?
CO[C@@]1(NC(=O)CSCC#N)C(=O)N2C(C(=O)O)=C(CSc3nnnn3C)CSC21 (stereo not given in full) | -1.6 | -18%
CC[C@H](C)[C@H](NC(=O)[C@H](C)NC(=O)[C@H](CC(=O)O)NC(=O)[C@H](CO)NC(=O)[C@@H](N)Cc1cnc[nH]1)C(=O)N[C@@H](Cc1ccccc1)C(=O)N[C@H](C(=O)N[C@@H](CCC(N)=O)C(=O)N[C@@H](CCC(N)=O)C(=O)N[C@@H](Cc1ccc(O)cc1)C(=O)N[C@@H](CO)C(=O)N[C@@H](CCCCN)C(=O)N[C@@H](CC(C)C)C(=O)N[C@@H](CC(C)C)C(=O)N[C@@H](C)C(=O)N[C@@H](CCCCN)C(=O)N[C@@H](CC(C)C)C(=O)N[C@@H](C)C(=O)N[C@@H](CC(C)C)C(=O)N[C@@H](CCC(N)=O)C(=O)N[C@@H](CCCCN)C(=O)N[C@@H](Cc1ccc(O)cc1)C(=O)N[C@@H](CC(C)C)C(=O)N[C@@H](C)C(=O)N[C@@H](CO)C(=O)N[C@H](C(=O)N[C@@H](CC(C)C)C(=O)NCC(=O)N[C@@H](CO)C(=O)N[C@@H](CCCNC(=N)N)C(=O)N[C@H](C(=O)N[C@@H](CO)C(=O)N1CCC[C@H]1C(=O)N1CCC[C@H]1C(=O)N1CCC[C@H]1C(N)=O)[C@@H](C)O)[C@@H](C)CC)[C@@H](C)O | 1.0 | 22%
COc1ccc2c(c1OC)C(Cc1ccccc1)N1CCc3cc4c(cc3C1C2)OCO4 (stereo not given) | ? | 56µM*
COc1ccc(C(=O)OC2CC3CC[C@H](C2)N3C(C)=O)cc1OC (stereo not given in full) | 3.5 | 13%
Cc1ccc(S(=O)(=O)NCc2ccc(C(=O)NCc3cccnc3)cc2)cc1 | 1.9 | 12%
C[C@@]12CCC3c4ccc(OC5C=CC(c6ccccc6)OC5CO)cc4CCC3C1CCC2=O (stereo not given in full) | 4.0[11.7 µM] | -15%
CCCCC/C=C\C/C=C\C/C=C\CCCCCCC(N)=O | -6.7 | -2%
Cc1ccccc1[C@@H](OCCN(C)C)c1ccccc1 | 3.4[24.8 µM] | 20%
CCCCCCCC[C@@H](O)/C=C/C=C/C=C\[C@@H](O)CCCC(=O)O | -1.9 | 23%
COC(=O)C1(C(=O)OC)C/C=C\C/C=C\c2ccccc2C1C[N+](=O)[O-] (stereo not given) | -1.0 | 1%
COC(=O)c1ccc(C(NC(=O)OCc2ccccc2)/C(=C/[C@@H](C)C(=O)NCc2cc(C)on2)c2cccnc2)cc1 (stereo not given in full) | 1.0 | 19%
COc1ccc(Nc2cc(C(=O)NCc3ccccn3)c3ccccc3n2)c(OC)c1 | -7.6 | 2%
CC1CCCN(c2nc3c(c(=O)[nH]c(=O)n3C)n2CCSc2ncccn2)C1 (stereo not given) | -0.2 | 14%
O=C(CCCCC(=O)N1CCN(c2ccccc2)CC1)N1CCN(c2ccccc2)CC1 | 2.7 | 10%
O=c1cc(-c2ccc(F)cc2F)[nH]c2ccc(F)cc12 | -0.6[94.6 µM] | -4%
CCCn1c(C)nc2c(NCCO)nc(C)nc21 | 2.8 | 15%
CCOc1cc(NC(=O)C2CC2)c(OCC)cc1NC(=O)c1cccnc1 | 2.6 | -8%
Cc1conc1NC(c1cccs1)c1ccc2cccnc2c1O (stereo not given) | -3.5 | 50µM*
COc1ccc(-c2c(C3C4C=CCCC4(C)C(=O)N3Cc3ccccc3)ccc3ccccc23)cc1 (stereo not given) | 2.1 | -29%
CN(CCc1ccc(Cl)c(Cl)c1)C[C@@H](O)COc1ccc(NS(C)(=O)=O)cc1 | 2.1 | 3%
Cc1ccc(S(=O)(=O)N[C@H]2COC(=O)[C@@H](C)COC(=O)[C@H](C)NC(=O)C/C=C\[C@H]2C)cc1 | 1.5[11.7 µM] | 10%
C=CCC1(O)C=CCC2C3C4C(OC(C)(C)C)C2C1C34 (stereo not given) | -0.6[11.7 µM] | 4%

Record cards, from the list above.
COC(=O)C1(C(=O)OC)C/C=C\C/C=C\c2ccccc2C1C[N+](=O)[O-] (stereo not given) across the screens: Menin-MLL FL inh = -1.0; Sfp PPTase inh = 1%
CO[C@@]1(NC(=O)CSCC#N)C(=O)N2C(C(=O)O)=C(CSc3nnnn3C)CSC21 (stereo not given in full) across the screens: Menin-MLL FL inh = -1.6; Sfp PPTase inh = -18%
C=CCC1(O)C=CCC2C3C4C(OC(C)(C)C)C2C1C34 (stereo not given) across the screens: Menin-MLL FL inh = -0.6[11.7 µM]; Sfp PPTase inh = 4%

(cont.)
Structure | Menin-MLL FL inh | Sfp PPTase inh
O=C(N/N=C/c1ccncc1)c1cccc([N+](=O)[O-])c1 | -0.8 | 8%
C#CC(C)OC(=O)c1nnc2c3ccccc3n(COC)c2n1 (stereo not given) | -1.2[11.7 µM] | 9%
Cc1ccnc(N=Cc2c(O)ccc3oc4c(c23)CCCC4)c1 | ? | -13%
N#CCCN/N=C(/Cc1nc2ccccc2[nH]1)c1ccc(Cl)cc1 | 1.9 | 22%
CCCn1c(SCC(=O)NC(=O)NCc2ccco2)n[nH]c1=O | 5.8 | 22µM*
CNC(C)C#Cc1ccc2c(=O)c3c(OC)cccc3oc2c1 (stereo not given) | 2.4 | -3%
CC(C)=CCC/C(C)=C/CO/N=C1/C[C@@H](O)[C@@H](O)[C@@H]2[C@@H]3C(=O)N(C(C)(C)C)C(=O)[C@H]3CC[C@H]12 | -4.5[11.7 µM] | 20%
CCCn1c(-c2ccc(F)cc2)nc2c(NCCCCN3CCCC3)nc(C)nc21 | -2.8 | 9%
COc1ccc(C2=Nn3c(nnc3-c3ccc(OC)c(OC)c3)SC2)cc1OC | 2.8 | 11%
CCCCCCCC1=Cc2ccccc2C(CC(C)=O)N1C(=O)OC (stereo not given) | 0.4&-4.7[11.7 µM] | -9%&2%
CC1=C(/C=C/C(C)=C/C=C/C(C)=C/C=C/C=C(C)/C=C/C=C(C)/C=C/C(=O)[C@]2(C)CC(O)CC2(C)C)C(C)(C)CC(O)C1 (stereo not given in full) | -3.2 | 11%
c1cnc2c(-c3nccc4c3[nH]c3ccccc34)cccc2c1 | -1.5 | 3%
CCCCC[C@H](O)/C=C/[C@H]1C(=O)C[C@H](O)[C@@H]1C/C=C\CCCC(=O)O | -0.5 | 15%&2%
O=C(C1=C(O)C(=O)N(CCCN2CCOCC2)C1c1ccccn1)c1cccs1 (stereo not given) | 13 | ?
O=C1C[C@@H](O)[C@@H](O)[C@H]2[C@@H]3C(=O)N(Cc4ccccc4)C(=O)[C@@H]3CC[C@H]12 | 0.9&-0.6[11.7 µM] | 5%&-2%
COC(=O)CNC(=O)C(=O)OC | -0.8 | -3%&17%
CC(C)=CCC/C(C)=C/CO/N=C1/C[C@@H](O)[C@@H](O)[C@@H]2[C@@H]3C(=O)N(C[C@@H]4CCCO4)C(=O)[C@H]3CC[C@H]12 | 0.5[11.7 µM] | -25%
COc1cccc(C2C(C)CCC3C(=O)N(C)C(C(C)C)C(=O)N32)c1 (stereo not given) | 1.9[11.7 µM] | 1%
Cc1nc2ccccc2c2c1C(=O)N(CCC1=CCCCC1)C2=O | -0.6 | 4%
COc1cc2c(cc1OC)C1O[C@](CCCCN3C(=O)c4ccccc4C3=O)(C2)Oc2c1c(=O)oc1ccc(F)cc21 | 2.3[11.7 µM] | -19%
CO[C@]1(NC(=O)C2SC(=C(C(N)=O)C(=O)O)S2)C(=O)N2C(C(=O)O)=C(CSc3nnnn3C)CS[C@H]21 (stereo not given in full) | -0.2[24.8 µM] | -18%
Cc1nn2c(N)csc2nc1=O | -8.7 | 50µM*
NCC1O[C@@H](OC2C(N)C[C@H](N)[C@@H](O[C@H]3OC(CO)C(O)C(N)C3O)C2O)C(N)C(O)C1O (stereo not given in full) | -0.8 | 0%
COc1ccc(C2/C=C\CN(C(=O)c3ccc(C)cc3)C(Cc3ccccc3)C(=O)N2Cc2ccc(F)cc2)cc1 (stereo not given) | -0.7 | -7%
C[C@H](N)[C@H](O)c1cccc(O)c1 | -10[24.8 µM] | 21%
O=C1CCC=C1[C@@H](O)CCc1ccccc1 | -9.4[11.7 µM] | 3%
COc1ccc2cc1Oc1ccc(cc1)CC1c3cc(c(OC)cc3CCN1C)Oc1c(OC)c(OC)c(OC)c3c1C(C2)N(C)CC3 (stereo not given) | 9.2 | -17%
CCOCCCNC(=O)c1cn(C)c2ccc(S(=O)(=O)N(C)C3CCCCC3)cc2c1=O | 0.2 | -5%
Cc1cccc(/C=C2/Sc3ccc(C(=O)NCCCN4CCOCC4)cc3NC2=O)c1 | -1.1 | 50µM*
N#CCC(=O)NN | 7.6 | 8%

Further structures.
| Structure | Menin-MLL FL inh | Sfp PPTase inh |
| --- | --- | --- |
| O=c1oc2ccccc2cc1O | -2.1 | -9% |
| COC(=O)Nc1ccc2[nH]cc(CCNC(C)=O)c2c1 | -0.5&-14 | 6%&13%&18% |
| CC(=O)N1CC=CC1(C)C(=O)NCC1CC1 (stereo not given) | 0.9 | 18% |
| COc1ccc(C2C3C=CCC(c4ccccc4)C3C(=O)N2Cc2ccccc2)cc1Cl (stereo not given) | 4.0 | -8% |
| CC(=O)OCC1OC(C#Cc2ccccc2Cl)C=CC1OC(C)=O (stereo not given) | 1.9[11.7 µM] | 4% |
| O=C(NCc1nc2ccccc2[nH]1)C1=C[C@@H](c2ccc3c(c2)OCO3)C[C@@H](OCc2ccc(CO)cc2)O1 | 9.4 | 3% |
| S=C=Nc1cccc(NC(=S)NCCCCNC(=S)Nc2cccc(N=C=S)c2)c1 | 1.8&-0.3 | 2%&34% |
| Cc1ccc2nc(C)c(CN3CCN(c4ccc([N+](=O)[O-])cc4Cl)CC3)n2c1 | -2.1 | -2% |
| CCCCCCCCCCCCCCOc1ccc(C(=O)O)o1 | ? | 2% |
| CC(C)[C@H](N)C(=O)N[C@@H](CCC(N)=O)C(=O)NCC(=O)N[C@@H](CCC(=O)O)C(=O)N[C@@H](CCC(=O)O)C(=O)N[C@@H](CO)C(=O)N[C@@H](CC(N)=O)C(=O)N[C@@H](CC(=O)O)C(=O)N[C@@H](CCCCN)C(=O)O | -2.3 | -1% |
| COCCN1C(=O)N[C@@H](c2ccc(Br)cc2)C(C(=O)OC)=C1C | -1.5&-1.5 | 8%&11% |
| CC(=O)OC1=C(C#N)Cn2ccc3cccc1c32 | ? | -2% |
| Cn1c(O)c(C=Nc2ccc(Cc3ccncc3)cc2)c(=O)n(C)c1=O | 5.0 | 11% |
| O=C(CN1CCSCC1)N/N=C/c1ccc(Cl)cc1 | -0.3 | -23% |
| CCCN1C(=O)/C(=c2\s/c(=C3\C=Cc4ccccc4N3CC)c(=O)n2-c2ccccc2)SC1=S | 10 | 10% |
| C=C1C(=O)O[C@@H]2[C@@H]1CC/C(C)=C\CC[C@@]1(C)O[C@H]21 | -0.6[24.8 µM] | 21% |
| COc1ccc(OC[C@@H](CO)OC)cc1 | -0.6[11.7 µM] | 16% |
| CC1(C)CC[C@]2(C(=O)O)CC[C@]3(C)C(=CCC4[C@@]5(C)CC[C@H](O)C(C)(C)[C@@H]5CC[C@]43C)C2C1 (stereo not given in full) | -1.0 | 31%[activator] |
| O=C(Nc1ccc(F)cc1F)c1cc2ncc(Br)cn2n1 | -0.3 | 3% |
| Brc1c(Br)c(Br)c2n[nH]nc2c1Br | 2.7&1.8 | 17% |

Of the compounds above, two contain a tert-butyl group.
| Structure | Menin-MLL FL inh | Sfp PPTase inh |
| --- | --- | --- |
| C=CCC1(O)C=CCC2C3C4C(OC(C)(C)C)C2C1C34 (stereo not given) | -0.6[11.7 µM] | 4% |
| CC(C)=CCC/C(C)=C/CO/N=C1/C[C@@H](O)[C@@H](O)[C@@H]2[C@@H]3C(=O)N(C(C)(C)C)C(=O)[C@H]3CC[C@H]12 | -4.5[11.7 µM] | 20% |

The results go on:
| Structure | Menin-MLL FL inh | Sfp PPTase inh |
| --- | --- | --- |
| Cc1cc(NC(=O)CSc2nnc3c(C)cc4cc5c(cc4n23)OCO5)no1 | -1.1 | 13% |
| C[C@H]1Cc2c(-c3ccccc3)nc3c(c2CO1)CN(S(=O)(=O)c1ccc2c(c1)OCCN2C)CC3 | 0.7[11.7 µM] | ? |
| C[C@H]1Cc2c(COc3ccccc3)nc3c(c2CO1)CN(C(=O)c1cc(I)ccc1F)CC3 | -5.6[11.7 µM] | 5% |
| Cc1coc2cc3oc(=O)c4c(c3cc12)CCC4 | 2.0 | -9% |
| COc1ccc(/C=C/N(CCc2ccc(OC)c(OC)c2)C(=O)C(F)(F)F)cc1 | -1.3[11.7 µM] | 11% |

High-throughput results from PubChem.

Some of the compounds tested. The share of hits here may be higher or lower than overall.
